# UCH37 DUB inh: blocks the human deubiquitinase UCH37 | Q9Y5K5 | purified proteasome/UCH37, Ub-AMC cleavage fluorescence | inhibition, % (no concentration beside the values) | 0.33% of 330,000 active | AID 588478;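 active = mean of two replicates above 20%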;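 also: 0% = compound-free wells with enzyme and 100% = wells lacking proteasome; stock transfer was 100 nL into about 20 µL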
#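 Signal – fluorescence, ex 355 nm, em 460 nm · System – Proteasome-bound UCH37 · Input – 0.15 nM proteasome as dispensed · Timing – 30 min preincubation with enzyme, 25 min cleavage at room temperature · Read-out basis – percent inhibition of cleavage signal versus uninhibited and no-proteasome wells · Medium – Tris-HCl pH 7.4 with ATP-MgCl2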
# FGF22 binding: binders of recombinant human FGF22 by thermal shift | Q9HCT0 | calls only at 9.99 µM | 1.5% of 340,000 active | SYPRO orange fluorescence; percent of sucrose octasulfate shift, DMSO zero;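 active = melting point raised past a set limit in the mean and every replicate; inconclusive = no clear call; three in four hits are not shown here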
# HNF4A DNA FP: change in binding of human HNF4 alpha to DNA; HNF4a-FITC DNA binding, fluorescence polarization, 1 h; 0.3% of 360,000 active; activity change, % at 10 µM; P41235; AID 1224865; in the data active = activity change above about 30%, passing the limit was not always enough;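 also: controls were the assay level and a saturating level of protein; the project sought stronger binding though the title names inhibitors; some compounds called inactive have numbers as strong as hits; positive values seem to mean higher polarization but the record does not say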
# Target sequence (P41235 whole entry, looked up): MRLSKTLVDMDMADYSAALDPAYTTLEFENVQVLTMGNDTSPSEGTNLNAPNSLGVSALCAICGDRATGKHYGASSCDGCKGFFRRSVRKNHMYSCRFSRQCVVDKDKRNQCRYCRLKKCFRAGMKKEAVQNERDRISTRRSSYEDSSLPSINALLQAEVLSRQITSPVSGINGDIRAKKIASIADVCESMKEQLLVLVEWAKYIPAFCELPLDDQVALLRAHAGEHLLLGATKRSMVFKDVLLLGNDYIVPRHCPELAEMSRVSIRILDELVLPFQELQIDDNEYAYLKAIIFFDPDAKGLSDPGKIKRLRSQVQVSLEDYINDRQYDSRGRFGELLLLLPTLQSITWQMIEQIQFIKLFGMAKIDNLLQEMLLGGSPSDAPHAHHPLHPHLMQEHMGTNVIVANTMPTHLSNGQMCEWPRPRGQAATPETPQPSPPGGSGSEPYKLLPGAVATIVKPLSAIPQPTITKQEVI
# Ecoli growth: blocks Escherichia coli growth | AID 1053175 | OD600 absorbance (no concentration beside the values) | OD600, 23 h; hits give low values | 0.21% of 330,000 active;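 active = OD600 absorbance below the run mean of sample wells minus 3.6 SD, in any replicate, cut at about 0.56 in these data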;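 also: stock transfer was 300 nL into about 60 µL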
# LANA-H2A inh: blocks KSHV LANA binding to histone H2A/H2B. Q9QR71. cell-free LANA-H2A/H2B peptide, fluorescence polarization. inhibition, % (test concentration not listed). 0.6% of 320,000 active; in the data active = inhibition mostly above about 10%, no sharp cut-off; inactive = mostly below about 6.7%;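 also: stock transfer was 7.5 nL into about 10 µL; 0% = median of vehicle wells and 100% = median of positive control wells; one replicate is shown; the record names a cut of 25% in any replicate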
# ALR inh: human ALR oxidase inhibition via reduced H2O2; P55789; purified ALR, DTT oxidation, H2O2 HRP-luminol luminescence; inhibition, % (test concentration not listed); 3.8% of 290,000 active;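 active = mean and each replicate at 75% or more; inconclusive = only one of the two met; inactive = neither met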;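 also: stock transfer was 7.5 nL into about 7.5 µL; 0% = neutral wells and 100% = wells with inactivated enzyme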
# Target sequence (P55789 whole entry, looked up): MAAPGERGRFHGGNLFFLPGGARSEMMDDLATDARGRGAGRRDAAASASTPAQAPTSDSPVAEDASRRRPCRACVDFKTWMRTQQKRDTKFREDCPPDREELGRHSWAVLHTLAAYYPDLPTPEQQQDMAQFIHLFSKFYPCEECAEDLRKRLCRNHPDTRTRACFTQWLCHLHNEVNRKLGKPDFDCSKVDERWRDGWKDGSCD
# B2AR ag: agonists of human beta-2 adrenergic receptor inducing internalization; P07550; Am2.2-beta2AR cells, FAP receptor internalization, flow cytometry; reference of the scale not given here; response, % (test concentration not listed); 0.43% of 340,000 active; AID 504454;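 active = response above a set limit, near 3 SD of response in nonfluorescent compounds, cut at about 42% in these data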;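 also: stock transfer was 100 nL into about 11 µL; a reference agonist was the positive control; negative values mostly stem from fluorescent compounds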
# Target sequence (P07550 whole entry, looked up): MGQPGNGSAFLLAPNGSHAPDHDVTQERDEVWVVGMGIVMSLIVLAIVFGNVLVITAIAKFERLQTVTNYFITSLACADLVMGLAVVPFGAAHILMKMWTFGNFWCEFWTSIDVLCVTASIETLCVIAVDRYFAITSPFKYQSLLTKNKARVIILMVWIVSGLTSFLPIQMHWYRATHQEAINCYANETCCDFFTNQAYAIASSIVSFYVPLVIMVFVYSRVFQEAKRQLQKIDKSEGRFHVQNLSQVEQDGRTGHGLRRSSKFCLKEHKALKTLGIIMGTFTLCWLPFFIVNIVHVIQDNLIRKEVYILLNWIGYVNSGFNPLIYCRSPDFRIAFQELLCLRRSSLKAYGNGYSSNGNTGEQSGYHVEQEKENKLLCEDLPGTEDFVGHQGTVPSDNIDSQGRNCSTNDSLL
# Active calls of the source: *; i = inactive; ? = inconclusive; . = not tested or not shown. An excerpt (hit frequency here may not be typical).
SMILES,UCH37 DUB inh,FGF22 binding,HNF4A DNA FP,Ecoli growth,LANA-H2A inh,ALR inh,B2AR ag
Cc1cccc([C@@H]2[C@@H]3C(=O)N(Cc4ccccc4)C(=O)[C@@H]3[C@]3(CC(C)C)C(=O)N(c4cccc(Cl)c4)C(=O)N23)c1,1.6,i,1.3,.,0.0,.,-2
O=C1c2ccccc2-c2onc3ccc(NCCCn4ccnc4)c1c23,11,.,.,0.86,176*,?,.
O=C(CSc1nc(=O)n2ccccc2n1)OCc1ccccc1,-0.4,i,4.5,0.69,2.2,2,10
COc1cccc(C(c2sc3nc(C)nn3c2O)N2CCN(c3ccccc3F)CC2)c1 (centres undefined),0.7,.,5.4,0.66,5.5,.,-6
COc1ccc(C2CC3(O)NC(=O)C(C#N)(C3C)C2(C#N)C#N)cc1 (centres undefined),1.4,i,0.4,0.67,-1.3,-1,-2
CSc1n[nH]c(NCc2ccccc2)n1,1.7,.,3.6,0.81,4.8,-10,-4
Cc1cc(C)c2oc(=O)cc(CN3CCN(Cc4ccc5c(c4)OCO5)CC3)c2c1,4.3,.,1.2,0.73,.,.,-12
COc1ccc(CC(=O)N2CCN(c3ccccn3)CC2)cc1,1.8,.,2.5,0.73,1.8,-4,-5
COc1ccc(C2/C(=C(/O)c3ccc4c(c3)CC(C)O4)C(=O)C(=O)N2Cc2cccnc2)cc1 (centres undefined),12,i,-2.2,0.68,2.1,0,7
Cc1ccccc1Cc1c(C)nc2c(C(=O)N3CCN(Cc4ccc5c(c4)OCO5)CC3)cnn2c1C,-47,.,8.7,0.68,-2.0,-16,7
COc1cc(O)c(C(C)=O)c(OC)c1,.,i,0.5,.,.,.,-3
COC(=O)c1ccccc1S(=O)(=O)N1Cc2cc([N+](=O)[O-])ccc2Oc2ccccc21,1.0,.,-1.5,0.73,0.3,.,4
O=C(Nc1ccc2c(c1)oc1ccccc12)N1CCOCC1,4.7,.,1.2,0.66,-0.7,-13,-1
CCN1CC(CN(C)Cc2nc(-c3cccs3)no2)CC1=O (centres undefined),-0.7,i,0.1,0.69,-0.1,-3,1
CCN1CCN(Cc2nc3c(c(=O)n(C)c(=O)n3C)n2C(C)C(C)=O)CC1 (centres undefined),-1.1,.,0.9,0.72,0.7,-3,-1
CCC(Sc1nc2ncccc2[nH]1)C(=O)N1CCOCC1 (centres undefined),-1.2,i,3.2,0.77,-4.8,-4,2
CC1(c2ccc(OCC(N)=O)cc2)NC(=O)NC1=O (centres undefined),-0.7,i,-0.8,0.68,1.2,3,3
COc1ccc(Br)cc1/C=N/NC(=O)c1ccc(COc2ccc3c(c2)CCC3)o1,.,.,-1.2,.,-7.4,-2,-5
COc1ccc(S(=O)(=O)Nc2c(C)n(C)n(-c3ccccc3)c2=O)c(Cl)c1Cl,2.5,i,-3.2,0.65,0.6,-3,3
Brc1ccsc1/C=N/Nc1ccccc1,.,i,1.6,.,-6.0,34,2
CCOC(=O)c1c(-c2ccccc2)oc2ccc(O)c(CN(C)C)c12,5.7,.,-2.6,0.72,2.2,5,25
O=C(NCc1ccccc1CN1CCCC1)c1cc2cc(Cl)ccc2o1,3.2,i,-3.8,0.67,-5.9,-3,4
Cc1cccc(-c2noc(CCCC(=O)N3CCOCC3)n2)c1,0.7,.,0.7,0.7,3.2,-4,2
COc1cc(/C=N/n2c(C)n[nH]c2=S)ccc1OCc1ccccc1,.,.,-0.2,.,-1.3,97*,-10
COc1ccc(CN2C(=O)CN=C2Nc2cccc(C)c2C)cc1,0.2,.,0.0,0.69,-297,30,-2
COc1ccc(C2C3=C(CCCC3=O)NC3=C2C(=O)c2ccccc23)cc1 (centres undefined),4.5,i,-1.6,0.67,-2.9,16,-13
COCCNc1ccc(-c2n[nH]c(=O)c3ccccc23)cc1[N+](=O)[O-],6.8,i,1.0,0.68,-3.2,3,-2
Cc1sc2ncnc(SCC(=O)NNC(=O)COc3cccc4ccccc34)c2c1C,2.8,.,1.4,0.74,-2.6,-21,-7
Cc1c(Br)cc(C(=O)OC2CCN(C)CC2)c(C)c1C,4.8,.,0.3,0.65,-3.3,-6,-3
Cn1c(CC(=O)NN)c(Sc2ccccc2)c2ccccc21,1.7,i,-3.5,0.69,-0.6,-17,-5
COc1ccc(CCNC(=O)CCCn2nc(C)c([N+](=O)[O-])c2C)cc1OC,2.7,i,-1.5,0.61,-2.3,.,-5
CCCc1cc(=O)[nH]c(SCC(=O)N2CCc3ccccc32)n1,1.6,i,-3.5,0.72,-5.2,1,2
CCOc1ccc(NC(=O)CCN2C(=O)C3CCCCC3C2=O)cc1OCC (centres undefined),5.2,i,4.3,0.68,0.6,.,-3
C/C(CC(=O)Nc1cc(C)ccn1)=N\NC(=O)c1ccc(C(C)(C)C)cc1,.,i,-1.0,.,-2.9,19,1
CC(C)COC(=O)c1ccc2c(c1O)C(=O)c1ccccc1C2=O,2.8,.,4.9,0.71,2.3,-32,9
CCn1c2ccccc2c2nnc(SCCN3CCOCC3)nc21,5.1,i,6.1,0.65,2.0,1,-1
O=C(N/N=C/c1cccc(NC(=O)c2ccc(Cl)cc2)c1)c1cccc(O)c1,.,i,-3.0,.,3.5,-7,20
CCCCOc1c(Cl)cc(CNC(C)(C)CO)cc1OCC,0.8,i,0.7,0.64,0.3,0,0
CCC(C)NCCOCCOc1cc(C)c(Cl)c(C)c1 (centres undefined),0.0,i,0.7,0.65,-4.3,-9,12
CCn1c(SCC(=O)NCc2ccc3c(c2)OCO3)nnc1-c1cccs1,2.0,.,0.5,0.71,7.2,-7,-8
Cc1ccc2nc(N3CCN(C(=O)c4ccc(F)cc4)CC3)c(C#N)cc2c1,-56,i,6.0,0.67,-4.2,-2,1
O=C(CSc1nnc(-c2cccs2)n1-c1ccccc1)N1CCOCC1,1.1,.,4.0,0.68,5.0,-2,5
COc1cc(C(=O)NCC(c2ccco2)N2CCCC2)ccc1OCc1ccc(Cl)cc1Cl (centres undefined),1.7,i,1.4,0.66,.,.,14
CCc1nnc(NC(=O)CC23CC4CC(CC(C4)C2)C3)s1,3.0,i,-1.0,0.8,5.3,.,2
CC(Nc1c([N+](=O)[O-])c(=O)oc2ccccc12)c1ccccc1 (centres undefined),7.5,i,2.8,0.69,-2.2,0,8

# Single values from above:
# CC1(c2ccc(OCC(N)=O)cc2)NC(=O)NC1=O (centres undefined) @ UCH37 DUB inh: -0.7
# CC(Nc1c([N+](=O)[O-])c(=O)oc2ccccc12)c1ccccc1 (centres undefined) @ UCH37 DUB inh: 7.5
# COc1ccc(C2/C(=C(/O)c3ccc4c(c3)CC(C)O4)C(=O)C(=O)N2Cc2cccnc2)cc1 (centres undefined) @ UCH37 DUB inh: 12
# Cc1ccc2nc(N3CCN(C(=O)c4ccc(F)cc4)CC3)c(C#N)cc2c1 @ LANA-H2A inh: -4.2
# COc1ccc(C2C3=C(CCCC3=O)NC3=C2C(=O)c2ccccc23)cc1 (centres undefined) @ ALR inh: 16
# COc1cc(O)c(C(C)=O)c(OC)c1 @ B2AR ag: -3
# COc1cccc(C(c2sc3nc(C)nn3c2O)N2CCN(c3ccccc3F)CC2)c1 (centres undefined) @ HNF4A DNA FP: 5.4

# Complete entries, looked up by structure. Order of values: UCH37 DUB inh | FGF22 binding | HNF4A DNA FP | Ecoli growth | LANA-H2A inh | ALR inh | B2AR ag
# `CC(Nc1c([N+](=O)[O-])c(=O)oc2ccccc12)c1ccccc1` (centres undefined) is listed as 7.5 | i | 2.8 | 0.69 | -2.2 | 0 | 8
# `COc1ccc(CCNC(=O)CCCn2nc(C)c([N+](=O)[O-])c2C)cc1OC` is listed as 2.7 | i | -1.5 | 0.61 | -2.3 | . | -5
# `COc1cc(C(=O)NCC(c2ccco2)N2CCCC2)ccc1OCc1ccc(Cl)cc1Cl` (centres undefined) is listed as 1.7 | i | 1.4 | 0.66 | . | . | 14

# Other compounds follow:
SMILES,UCH37 DUB inh,FGF22 binding,HNF4A DNA FP,Ecoli growth,LANA-H2A inh,ALR inh,B2AR ag
Cc1ccc(C(=O)OCC(=O)N2CCC(Cc3ccccc3)CC2)cc1N,-11,i,0.0,0.69,-1.3,1,4
CC(=O)N1CCN(c2ccc(NCc3ccc(F)cc3)cc2)CC1,0.3,i,1.6,0.73,-1.5,99*,2
N#Cc1ccc(CSc2ccc(S(=O)(=O)N3CCCC3)cn2)cc1,2.8,i,2.9,0.69,-2.1,93*,-3
Cc1ccc(S(=O)(=O)NC(C(=O)OCC(=O)NC2CCS(=O)(=O)C2)C(C)C)cc1 (centres undefined),2.9,.,-0.2,0.69,-5.1,-12,1
Cc1ccc(C(=O)Nc2ccc(C(=O)O)cc2NC(=O)c2ccc(C)cc2)cc1,1.3,i,-0.8,0.67,0.6,9,-4
CCOC(=O)c1sc(SCc2ccccc2)c2c1CC(C)(C)CC2=O,0.2,i,-1.9,0.7,-1.6,?,1
CCOC(=O)n1c(=O)oc2cc(S(=O)(=O)N3CCOCC3)ccc21,0.9,.,2.1,0.65,3.8,.,26
O=C(NCC(=O)N(CCc1ccccc1)C(C(=O)NC1CCCCC1)c1ccncc1)c1ccco1 (centres undefined),6.1,.,-0.5,0.75,3.4,-10,7
COC(=O)c1ccc(COc2ccc(/C=N/O)cc2)o1,.,i,0.3,.,1.4,98*,4
C(=N\NC1=Nc2cccc3cccc1c23)/c1cccnc1,.,i,40*,.,-1.7,-20,-4
CC(C)(C)NC(=O)Nc1ccccc1C(N)=O,1.1,.,-0.2,0.62,4.7,-17,-6
CCCc1cc(=O)oc2c(C)c(OCC(=O)Nc3cccnc3)ccc12,-8.3,i,4.2,0.69,8.4,-2,5
CCN(C(=O)c1cc2c(C)nc3ccccc3c2o1)c1cc(Cl)ccc1OC,3.8,i,5.2,0.69,1.3,-7,-9
Cc1nn(-c2ccccc2)c(Cl)c1/C=N/NC(=O)c1cccc(S(=O)(=O)N2CCCC2)c1,.,i,34,.,5.9,-7,3
CN(CC(=O)NCc1cccnc1)S(=O)(=O)c1ccc(F)cc1,1.3,i,0.6,0.65,18,4,5
CCOC(=O)C1CCCCN1S(=O)(=O)c1ccc2c(c1)CC(C)N2C(=O)C1CCC1 (centres undefined),5.9,i,0.7,0.71,-0.8,-3,5
COc1ccccc1-c1noc(-c2ccccc2C(=O)N2CCOCC2)n1,-1.3,.,-1.2,0.76,-1.5,-10,-6
CC(=O)Nc1ccc(S(=O)(=O)NCC2CCC(C(=O)NCCCN3CCCC3=O)CC2)cc1 (centres undefined),-0.1,.,-3.0,0.65,0.5,-4,0
COc1ccc(OC)c(N)c1,17,.,-1.3,0.74,0.4,12,-1
O=C(COC(=O)c1cccnc1Cl)NCCc1ccc(F)cc1,-1.0,i,-1.4,0.66,-4.3,-1,4
CC(C)(C)C(=O)N1CCN(c2ccc([N+](=O)[O-])cc2-n2cccc2)CC1,1.5,i,2.8,0.69,-4.2,-2,-6
CCOc1cc(CNCc2ccccn2)ccc1OCC(=O)NC(C)(C)C,1.9,.,0.5,0.67,.,.,-12
O=C(Nc1nnc(-c2ccccc2)s1)c1ccccc1O,-2.1,i,-3.0,0.68,4.6,1,14
CN(C)S(=O)(=O)c1ccc(N2C(=O)CC2(/C=C/c2ccccc2)C(=O)NC2CCCC2)cc1 (centres undefined),4.7,.,3.2,0.72,-3.4,1,5
CCCCNC(=O)C1CC(=O)N(CCc2ccc(C)cc2)C1 (centres undefined),-1.3,i,-2.3,0.68,-7.2,.,6
COc1ccc(NC(=S)N2CCN(C(=O)c3ccco3)CC2)cc1OC,4.4,i,6.2,0.65,3.3,-21,-1
CCN1CCN(C(=S)NCC(C)C)CC1,1.4,.,-2.0,0.69,2.3,-8,-1
Fc1cccc(-c2cc3nc4c(c(N5CCOCC5)n3n2)CCCC4)c1,-41,.,-0.2,0.67,1.0,-13,-1
C=CCNC(=O)CN1CCN(C(c2ccccc2)c2ccccc2)CC1,1.3,i,0.8,0.67,6.8,-10,1
CCCC(=O)Nc1sc2c(c1C#N)CC(C)(C)NC2(C)C,-0.9,.,-1.3,0.74,5.3,-4,-26

# Screens deposited in PubChem by several laboratories.
